HIV Env fusion: blocks HIV Env-driven cell-cell fusion; HeLa-JRFL Env/CEM21 cell fusion, luciferase; inhibition, % at 12.3 µM; 360,000 compounds, 1.1% hits;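 active means mean replicate inhibition score of at least 50 and every replicate individually at or above 50; inconclusive means only one of the two criteria met; inactive means mean below 50 and not all replicates reaching 50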;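 further: 0% = plate neutral controls and 100% = maraviroc near 300 nM; one replicate is shown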
* = called active by the depositor; [ ] = remark or other dose.

`C[C@H]1CN([C@@H](C)CO)C(=O)Cc2cc(NS(C)(=O)=O)ccc2O[C@H]1CN(C)C(=O)Nc1cccc2ccccc12` gave HIV Env fusion 13.7[16.7 µM].
CNC(=O)C[C@@H]1CC[C@H]2[C@@H](COc3ccc(NC(=O)c4cc(F)cc(F)c4)cc3C(=O)N2C)O1 was read as HIV Env fusion -13.5[16.7 µM].
CO[C@H]1CN(C)C(=O)c2cccc(C#N)c2OCC[C@H]2CC[C@@H](OC)[C@H](CN(C)C(=O)[C@H]1C)O2 was read as HIV Env fusion 6.6[16.7 µM].
`COc1ccc(CN(C)C[C@@H]2Oc3ccc(NC(=O)Cc4ccccc4)cc3CC(=O)N([C@@H](C)CO)C[C@@H]2C)cc1` gave HIV Env fusion -7.6[16.7 µM].
COCCN1Cc2cc(C(=O)OC)c3c(c2C1=O)c1cc(OC)ccc1n3S(=O)(=O)c1ccc(F)cc1 was read as HIV Env fusion 13.2.
CCc1c(-c2cccc(F)c2)ncn1CCc1ccccc1OC was read as HIV Env fusion -16.3.
`O=C(N[C@H](Cc1ccccc1)C(=O)NCc1ccccn1)[C@H]1O[C@@H](n2ccc(=O)[nH]c2=O)[C@H](O)[C@@H]1O` gave HIV Env fusion -12.9.
`COc1ccc(NC(=O)N(C)C[C@H]2Oc3ccc(N(C)C)cc3CC(=O)N([C@H](C)CO)C[C@@H]2C)cc1` gave HIV Env fusion -4.3[16.7 µM].
Screening C[C@@H]1CN([C@@H](C)CO)C(=O)Cc2cc(NS(=O)(=O)c3ccc(F)cc3)ccc2O[C@H]1CN(C)C(=O)Nc1ccc2c(c1)OCO2 returned HIV Env fusion 0.5[16.7 µM].
COCCNC(=O)[C@@H]1[C@@H](CO)[C@@H]2Cn3c(ccc(-c4ccccc4F)c3=O)[C@H]1N2S(C)(=O)=O was read as HIV Env fusion 1.3[16.7 µM].
CCN(CCC(=O)Nc1cc(OC)ccc1OC)Cc1ccccc1 was read as HIV Env fusion 5.8.
For Cc1cc(Nc2cc(F)c(F)c(F)c2)cc(=O)n1-c1cc(F)c(F)c(F)c1 the results were HIV Env fusion 22.3.
COc1ccccc1C#Cc1ccc([C@H]2[C@@H](C#N)N(C(=O)C3CCCC3)[C@@H]2CO)cc1 was read as HIV Env fusion 13.5[16.7 µM].
`CO[C@@H]1CN(C)C(=O)c2cc(NC(C)=O)ccc2OC[C@@H](C)N(CC2CCCCC2)C[C@@H]1C` gave HIV Env fusion -17.1[16.7 µM].
Screening CN1CCN(C(=O)C[C@H]2CC[C@@H]3[C@H](COc4ccc(NC(=O)C5CCOCC5)cc4C(=O)N3C)O2)CC1 returned HIV Env fusion -3.5[16.7 µM].
C[C@@H]1CCCCO[C@H](CN(C)C(=O)c2ccccc2)[C@@H](C)CN([C@H](C)CO)C(=O)c2cc(NC(=O)c3ccccc3)ccc2O1 was read as HIV Env fusion -5.6[16.7 µM].
Screening COCC(=O)N1C[C@@H](C)[C@@H](OC)CN(C)C(=O)c2cc(NC(=O)C3CCC3)ccc2OC[C@H]1C returned HIV Env fusion -9.2[16.7 µM].
For O=C(CCN1CCCCC1)NCC[C@@H]1CC[C@H](NC(=O)C2CCCCC2)[C@@H](CO)O1 the results were HIV Env fusion 18.7[16.7 µM].
`COc1cccc(S(=O)(=O)Nc2ccc3c(c2)[C@H]2C[C@@H](CC(=O)NC4CCCCC4)O[C@@H](CO)[C@H]2O3)c1` gave HIV Env fusion -42.5[16.7 µM].
Screening CN(C)C(=O)c1cccc(-c2ccccc2[C@@H]2[C@@H](C#N)N(C(=O)C3CCCC3)[C@@H]2CO)c1 returned HIV Env fusion -24.3[16.7 µM].
COC(=O)[C@H]1[C@H](CO)[C@H]2Cn3c(ccc(C4=CCCCC4)c3=O)[C@H]2N1Cc1cccnc1 was read as HIV Env fusion -44.8[16.7 µM].
`Cc1noc(C)c1NC(=O)N(C)C[C@@H]1Oc2ccc(NC(=O)C3CC3)cc2C(=O)N([C@H](C)CO)C[C@H]1C` gave HIV Env fusion 14.9[16.7 µM].
Screening COC(=O)[C@]12C[C@H](CC(=O)NCCc3ccccc3OC)C(=O)N(Cc3ccccc3)C1=C[C@H](C(C)C)O[C@@H]2C1CC1 returned HIV Env fusion -30.6.
For O=C(c1cccnc1)N1CC2(C1)[C@@H](c1ccccc1)[C@H](CO)N2Cc1cccnc1 the results were HIV Env fusion 10.0[16.7 µM].
C[C@H](CO)N1C[C@H](C)[C@H](CN(C)S(=O)(=O)c2cn(C)cn2)Oc2c(NC(=O)C3CCCCC3)cccc2C1=O was read as HIV Env fusion 4.0[16.7 µM].
COc1ccc2c3c(n(C)c2c1)[C@H](CO)N(C(=O)CN1CCOCC1)CC31CN(C(=O)CC2CC2)C1 was read as HIV Env fusion 20.4[16.7 µM].
`Fc1ccc(-c2ccc3c(n2)CCCN3Cc2ccccn2)cc1` gave HIV Env fusion -49.8.
For COc1ccc(NC(=O)Nc2ccc3c(c2)[C@@H]2C[C@@H](CC(=O)NCc4ccccn4)O[C@H](CO)[C@@H]2O3)cc1 the results were HIV Env fusion -1.4[16.7 µM].
C[C@@H]1CCCCO[C@H](CN(C)C(=O)CCCN(C)C)[C@H](C)CN([C@H](C)CO)C(=O)c2cc(NS(C)(=O)=O)ccc2O1 was read as HIV Env fusion 2.9[16.7 µM].
Screening CN(C)Cc1cn(CC[C@H]2CC[C@H](NC(=O)Cc3cccnc3)[C@H](CO)O2)nn1 returned HIV Env fusion -18.0[16.7 µM].

A portion of the results above, as a working copy:
C[C@@H]1CCCCO[C@H](CN(C)C(=O)CCCN(C)C)[C@H](C)CN([C@H](C)CO)C(=O)c2cc(NS(C)(=O)=O)ccc2O1 was read as HIV Env fusion 2.9[16.7 µM].
Screening CN(C)Cc1cn(CC[C@H]2CC[C@H](NC(=O)Cc3cccnc3)[C@H](CO)O2)nn1 returned HIV Env fusion -18.0[16.7 µM].

Continuation:
For C[C@@H]1CN([C@@H](C)CO)C(=O)c2cc(NC(=O)C3CCCCC3)ccc2O[C@@H]1CN(C)S(=O)(=O)c1ccc(Cl)cc1 the results were HIV Env fusion inconclusive.
Screening Cc1cc2c(nc1C)CCCN2S(=O)(=O)c1ccc(C#N)cc1 returned HIV Env fusion 4.0.
`O=C(C[C@H]1C[C@H]2c3cc(NC(=O)c4cccnc4)ccc3O[C@H]2[C@H](CO)O1)NC1CCCCC1` gave HIV Env fusion 1.1[16.7 µM].
C[C@H](CO)N1C[C@H](C)[C@@H](CN(C)C(=O)CCC(F)(F)F)OCCCC[C@H](C)Oc2ccc(NS(=O)(=O)c3ccc(Cl)cc3)cc2C1=O was read as HIV Env fusion -95.1[16.7 µM].
C[C@@H]1CN([C@@H](C)CO)C(=O)c2c(c3ccccc3n2C)-c2ccccc2CO[C@H]1CN(C)C(=O)[C@H]1CCCN1C was read as HIV Env fusion -4.8[16.7 µM].
COc1ccc2c3c([nH]c2c1)[C@@H](CO)N(Cc1ccccc1F)CC31CCN(C(=O)C2CCOCC2)CC1 was read as HIV Env fusion -25.7[16.7 µM].
For Cc1ccccc1S(=O)(=O)N1C[C@H](O)COC[C@H]2O[C@@H](CC(=O)O)CC[C@@H]21 the results were HIV Env fusion -22.8[16.7 µM].
C[C@@H]1CN([C@H](C)CO)S(=O)(=O)c2ccc(C#Cc3cccnc3)cc2O[C@@H]1CN(C)CC1CC1 was read as HIV Env fusion 0.9[16.7 µM].
C/C=C/c1ccc([C@@H]2[C@@H](CO)N(C(=O)C3CCCC3)C23CN(C(=O)NC(C)C)C3)cc1 was read as HIV Env fusion -9.3[16.7 µM].
For O=C(C[C@H]1C[C@H]2c3cc(NC(=O)C4CCOCC4)ccc3O[C@H]2[C@H](CO)O1)NCc1cc(F)ccc1F the results were HIV Env fusion -13.5[16.7 µM].
Screening COc1ccc(C(=O)Nc2ccc3c(c2)C(=O)N(C)C[C@@H](OC)[C@H](C)CN(C)[C@H](C)CO3)cc1 returned HIV Env fusion -2.2[16.7 µM].
`CC(C)NC(=O)N(C)C[C@@H]1OCCCC[C@H](C)Oc2ccc(NC(=O)c3ccccc3)cc2C(=O)N([C@@H](C)CO)C[C@@H]1C` gave HIV Env fusion -21.1[16.7 µM].
`CO[C@H]1CC[C@@H]2CCOc3c(C#N)cccc3C(=O)N(C)C[C@H](C)C(=O)N(C)C[C@H]1O2` gave HIV Env fusion 8.4[16.7 µM].
Screening O=C(NCC1CC1)[C@H]1N[C@H]2c3ccc(C4=CCCCC4)c(=O)n3C[C@H]2[C@@H]1CO returned HIV Env fusion 20.7[16.7 µM].
CO[C@H]1CN(C)C(=O)c2ccc(NS(=O)(=O)c3ccc(C)cc3)cc2OC[C@H](C)NC[C@@H]1C was read as HIV Env fusion 3.8[16.7 µM].

Ordered by length of the SMILES (rising): 6 of the compounds above
For Cc1ccccc1S(=O)(=O)N1C[C@H](O)COC[C@H]2O[C@@H](CC(=O)O)CC[C@@H]21 the results were HIV Env fusion -22.8[16.7 µM].
C/C=C/c1ccc([C@@H]2[C@@H](CO)N(C(=O)C3CCCC3)C23CN(C(=O)NC(C)C)C3)cc1 was read as HIV Env fusion -9.3[16.7 µM].
CO[C@H]1CN(C)C(=O)c2ccc(NS(=O)(=O)c3ccc(C)cc3)cc2OC[C@H](C)NC[C@@H]1C was read as HIV Env fusion 3.8[16.7 µM].
For O=C(C[C@H]1C[C@H]2c3cc(NC(=O)C4CCOCC4)ccc3O[C@H]2[C@H](CO)O1)NCc1cc(F)ccc1F the results were HIV Env fusion -13.5[16.7 µM].
For C[C@@H]1CN([C@@H](C)CO)C(=O)c2cc(NC(=O)C3CCCCC3)ccc2O[C@@H]1CN(C)S(=O)(=O)c1ccc(Cl)cc1 the results were HIV Env fusion inconclusive.
C[C@H](CO)N1C[C@H](C)[C@@H](CN(C)C(=O)CCC(F)(F)F)OCCCC[C@H](C)Oc2ccc(NS(=O)(=O)c3ccc(Cl)cc3)cc2C1=O was read as HIV Env fusion -95.1[16.7 µM].

Carrying on.
`Cc1noc(C)c1S(=O)(=O)Nc1ccc2c(c1)C(=O)N([C@@H](C)CO)C[C@H](C)[C@H](CN(C)S(=O)(=O)c1ccc(F)cc1)O2` gave HIV Env fusion 9.4[16.7 µM].
`C[C@@H]1CN([C@H](C)CO)S(=O)(=O)c2ccc(-c3ccccc3)cc2O[C@@H]1CN(C)C(=O)C1CCC1` gave HIV Env fusion -4.1[16.7 µM].
Screening CCCN(C)C[C@H]1OCCCC[C@@H](C)Oc2ccc(NS(=O)(=O)c3cn(C)cn3)cc2C(=O)N([C@@H](C)CO)C[C@H]1C returned HIV Env fusion 9.7[16.7 µM].
`CCN1[C@@H]2c3ccc(-c4ccccc4OC)c(=O)n3C[C@@H]2[C@@H](CO)[C@@H]1C(=O)NCc1ccc(F)cc1` gave HIV Env fusion 16.3[16.7 µM].
Cc1cc(N2CCN(C(=O)OC(C)(C)C)C[C@H]2C)ccc1N1CCN(Cc2ccccc2)[C@@H](C)C1 was read as HIV Env fusion 26.2.
Screening CCC(=O)Nc1ccc2c(c1)C(=O)N(C)C[C@@H](OC)[C@@H](C)CN(CC1CCOCC1)[C@H](C)CO2 returned HIV Env fusion 14.1[16.7 µM].
`CC(C)NC(=O)N(C)C[C@H]1Oc2c(NS(=O)(=O)c3cccs3)cccc2C(=O)N([C@@H](C)CO)C[C@@H]1C` gave HIV Env fusion -4.2[16.7 µM].
Screening C[C@@H]1CN([C@@H](C)CO)C(=O)c2cccc(NC(=O)Nc3ccc(C(F)(F)F)cc3)c2O[C@H]1CN(C)S(=O)(=O)c1ccccc1 returned HIV Env fusion -28.5[16.7 µM].
For C[C@@H]1CN([C@@H](C)CO)C(=O)c2cc(NC(=O)Nc3ccccc3)ccc2O[C@@H](C)CCCCO[C@@H]1CN(C)Cc1ccncc1 the results were HIV Env fusion 2.0[16.7 µM].
Screening COCC(=O)Nc1ccc2c(c1)C(=O)N(C)C[C@H](OC)[C@@H](C)CN(C(=O)Cc1cccnc1)[C@@H](C)CO2 returned HIV Env fusion 0.8[16.7 µM].
`COCC(=O)Nc1ccc2c(c1)OC[C@H](C)N(C(=O)NC(C)C)C[C@H](C)[C@H](OC)CN(C)C2=O` gave HIV Env fusion 3.1[16.7 µM].
For CCS(=O)(=O)Nc1ccc2c(c1)C(=O)N(C)[C@H]1CC[C@@H](CC(=O)N[C@H]3CCN(Cc4ccccc4)C3)O[C@@H]1CO2 the results were HIV Env fusion 3.9[16.7 µM].
For Nc1ccn([C@@H]2O[C@H](C(=O)N[C@H](Cc3ccccc3)C(=O)N3CCN(CCO)CC3)[C@@H](O)[C@H]2O)c(=O)n1 the results were HIV Env fusion 3.5.
`COCC(=O)N1C[C@H](C)[C@H](OC)CN(C)C(=O)c2cc(NC(=O)c3cc(C)on3)ccc2OC[C@@H]1C` gave HIV Env fusion -6.8[16.7 µM].
Screening CC(C)NC(=O)N(C)C[C@@H]1OCCCC[C@@H](C)Oc2ccc(NC(=O)C3CCCCC3)cc2C(=O)N([C@H](C)CO)C[C@H]1C returned HIV Env fusion -8.9[16.7 µM].
COc1ccc(CN2C[C@H](COCc3ccccc3)Oc3cccc(N4CCCC4)c3S2(=O)=O)cc1 was read as HIV Env fusion 8.5.
For CC(=O)C1=C(C)N(Cc2ccc(Cl)cc2)C(=S)NC1c1ccccc1 (stereo not given) the results were HIV Env fusion inconclusive.
For CO[C@H]1CN(C)C(=O)c2ccc(NC(C)=O)cc2OC[C@@H](C)N(Cc2ccccc2F)C[C@H]1C the results were HIV Env fusion 6.4[16.7 µM].
Screening O=C(C[C@@H]1CC[C@@H](NC(=O)Nc2ccc(C(F)(F)F)cc2)[C@@H](CO)O1)NCc1cc(F)cc(F)c1 returned HIV Env fusion 8.5[16.7 µM].
Screening CC(C)[C@H](NC(=O)c1ccc(Cl)c(Cl)c1)C(=O)N1CCC[C@H]1C(=O)NCc1ccccc1 returned HIV Env fusion 0.3.
`CO[C@@H]1CC[C@H]2CCN(C)C(=O)[C@@H](C)[C@H](OC)CN(C)C(=O)c3cccc(C#N)c3OC[C@@H]1O2` gave HIV Env fusion 3.8[16.7 µM].
`C[C@H]1CN([C@@H](C)CO)S(=O)(=O)c2ccc(-c3ccncc3)cc2O[C@@H]1CN(C)C(=O)C1CCC1` gave HIV Env fusion 4.1[16.7 µM].
COC(=O)C[C@H]1C[C@H]2c3cc(NS(C)(=O)=O)ccc3O[C@H]2[C@@H](CO)O1 was read as HIV Env fusion -37.7[16.7 µM].

An excerpt; count on the stated rates, not on these rows.
